PK Bst = modulators of Bacillus stearothermophilus pyruvate kinase; partly purified Bacillus stearothermophilus pyruvate kinase, luminescence ATP production; ribose 5-phosphate activator present at AC10; Potency, µM; 51,000 tested, 1.2% active; AID 361; in the data active means potency below about 11 µM; inconclusive means mostly about 12 µM to 25 µM; inactive means weaker than that;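 the screen sought inhibitors and activators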;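 note: potency is the fitted concentration of half-maximal effect; scaled between full activation by ribose 5 phosphate and full inhibition by luteolin; about four in five hits inhibit and the cells do not say which; series up to 57 µM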
TsaE inh = displaces an ADP probe from E. coli YjeE (TsaE) | purified YjeE, fluorescence polarisation of a bound ADP probe | 71,000 tested, 0.05% active | Potency, µM; active = well fitted falling curve; inconclusive = weaker or top-dose-only fall, or a rising curve; inactive = flat or poorly fitted curve;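 note: top concentration of the series not given in the record; excess ADP was the control for the full effect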
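Purified YjeE (10 uM) with BODIPY Texas Red-labeled ADP probe (2 uM); compounds pin-transferred, 15 min at room temperature. Binding inhibition read as decreased fluorescence polarization; ADP titration as control.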
* = called active by the depositor; i = inactive; u = inconclusive; x = no result given. Not all compounds are listed; the hit share may differ from the screen's.

| structure | PK Bst | TsaE inh |
| --- | --- | --- |
| CCOCCCNC(=O)C1c2ccccc2C(=O)N2CCc3ccccc3C12 (centres undefined) | >57 | i |
| c1cncc(CNc2ncncc2-c2ccc3c(c2)OCO3)c1 | x | i |
| Cc1ccc(C)c(Cn2c(C(C)O)nc3ccccc32)c1 (centres undefined) | >57 | i |
| CC(=O)[C@@H]1CC[C@@H]2[C@@H]3CC=C4C[C@H](OS(=O)(=O)O)CC[C@@]4(C)[C@H]3CC[C@]21C | x | i |
| COc1ccc(Cc2nnn(CC(=O)O)n2)cc1 | >57 | i |
| O=C(N/N=C\c1cccc(O)c1)c1ccncc1 | x | i |
| CC(C)Cn1c(SCc2nnc(-c3cccs3)o2)nc(O)cc1=O | >57 | i |
| O=C(c1cc(C(F)(F)F)cc(C(F)(F)F)c1)N1CCC[C@@]2(CCN(Cc3ccccc3)C2)C1 | x | i |
| O=C(CSc1nc2nc(-c3cccs3)cc(C(F)(F)F)c2c(=O)[nH]1)NCc1ccco1 | >11.4 | i |
| CCOC(=O)C1=C2N(C)c3ccccc3N2CCC1=O | x | i |
| COc1c(S(=O)(=O)N2CCCC2)ccc(Cl)c1Cl | >57 | i |
| O=C(CCCCn1c(=O)[nH]c2ccccc2c1=O)NCCC1=CCCCC1 | >57 | i |
| CCc1nc(N)c(C#N)c(-c2cccn2C)c1C | >57 | i |
| Cc1c(C(=O)NCCCN2CCCC2=O)oc2ccc(S(=O)(=O)N3CCOCC3)cc12 | >57 | i |
| Cc1ccc2nsnc2c1S(=O)(=O)N1CCCC1 | u | i |
| COc1ccc(S(=O)(=O)Cc2ccc(C(=O)N3CCN(c4ncccn4)CC3)o2)cc1 | x | i |

Exported with the structure last: part of the list above.
PK Bst | TsaE inh | smiles
>11.4 | i | O=C(CSc1nc2nc(-c3cccs3)cc(C(F)(F)F)c2c(=O)[nH]1)NCc1ccco1
x | i | CCOC(=O)C1=C2N(C)c3ccccc3N2CCC1=O
>57 | i | COc1c(S(=O)(=O)N2CCCC2)ccc(Cl)c1Cl
>57 | i | O=C(CCCCn1c(=O)[nH]c2ccccc2c1=O)NCCC1=CCCCC1
>57 | i | CCc1nc(N)c(C#N)c(-c2cccn2C)c1C
>57 | i | Cc1c(C(=O)NCCCN2CCCC2=O)oc2ccc(S(=O)(=O)N3CCOCC3)cc12
u | i | Cc1ccc2nsnc2c1S(=O)(=O)N1CCCC1

Additional records follow.
| structure | PK Bst | TsaE inh |
| --- | --- | --- |
| COc1cccc(Cn2c(=O)c(-c3cccs3)nc3cnc(OC)nc32)c1 | x | i |
| CCN(CC)CC(=O)c1ccc(-c2ccccc2)cc1 | >57 | i |
| COc1ccc(OC)c(S(=O)(=O)n2nnc3ccccc32)c1 | x | i |
| CCOc1cc2[nH]c(=O)n(CCC(=O)N3CCN(c4ccccc4OC)CC3)c(=O)c2cc1OCC | >57 | i |
| CCN(CCCNC(=O)CN(C)S(=O)(=O)c1ccc2c(c1)CCC(=O)N2)c1cccc(C)c1 | >57 | i |
| CC(=O)OC1CC(C)OC(C)O1 (centres undefined) | x | i |
| CCOc1ccccc1N(C(=O)c1ccco1)C(C(=O)NC1CCCC1)c1cccnc1 (centres undefined) | >57 | i |
| c1ccc(CCn2nnnc2CN2CCc3ccccc32)cc1 | >57 | i |
| CC1(C)Oc2ccc(C(=O)NC3CCCC3)cc2N(CC(=O)NC2CCCC2)C1=O | >57 | i |
| CCN(CC(=O)NCc1cccs1)c1ccc(S(=O)(=O)N2CCOCC2)cn1 | >57 | i |
| CCCCN(Cc1cc2cc(OC)ccc2[nH]c1=O)C(=O)c1ccccn1 | >57 | i |
| COc1cccc(OCC(=O)NC2CCCCC2)c1 | >57 | i |
| COc1cccc(Nc2ncc3nc(-c4ccccc4)c(=O)n(C)c3n2)c1 | x | i |
| CCCCC[C@H](O)/C=C\[C@@H]1[C@H](O)CC(=O)[C@@H]1CCCCCCC(=O)O | x | i |
| Cc1c(C(=O)O)nc(/C=C\C(=O)O)[nH]c1=O | x | i |
| O=C(CN1C(=O)C2(OCCO2)c2ccccc21)c1ccc(Br)cc1 | >57 | i |

Retrieved by structure from above, 2 records:
| structure | PK Bst | TsaE inh |
| --- | --- | --- |
| COc1cccc(Nc2ncc3nc(-c4ccccc4)c(=O)n(C)c3n2)c1 | x | i |
| CCN(CC(=O)NCc1cccs1)c1ccc(S(=O)(=O)N2CCOCC2)cn1 | >57 | i |

Next results
| structure | PK Bst | TsaE inh |
| --- | --- | --- |
| COc1ccc(NC2CC(=O)N(c3cccc(C)c3)C2=O)cc1 (centres undefined) | >57 | i |
| O=C(CSc1n[nH]c(-c2ccc(S(=O)(=O)N3CCCCC3)cc2)n1)Nc1nccs1 | >57 | i |
| CCOCC(=O)Nc1cc(OC)c(Cl)cc1OC | >57 | i |
| CC1Cc2nc(SCC(=O)N3CCOCC3)n(-c3ccccc3)c(=O)c2S1 (centres undefined) | x | i |
| NS(=O)(=O)c1ccc(NC(=O)CSC2=NC(=O)C(c3ccccc3)C(=O)N2)cc1 (centres undefined) | x | i |
| CCOC(=O)Cn1nnnc1CN(Cc1ccc(OC)cc1)Cc1cc2cc(CC)ccc2[nH]c1=O | >57 | i |
| CCC(C)(C)n1c(=O)[nH]c2c(c1=O)CCC2 | >57 | i |
| CCCCCOC(=O)Cn1c(=O)oc2ccccc21 | x | i |
| O=C1C(=O)N(CCN2CCOCC2)C(c2ccccn2)/C1=C(/O)c1ccccc1 (centres undefined) | >25.6 | x |
| O=C(C1CCCN(S(=O)(=O)c2cccs2)C1)N1CCC(N2CCCCC2)CC1 (centres undefined) | x | i |
| O=C(COc1ccc2c(c1)CCC2)N1CCc2ccccc21 | >57 | i |
| CCn1c2ccccc2c2nnc(SCN3C(=O)c4ccccc4C3=O)nc21 | x | i |
| COc1ccc(OC)c(C2C(C(C)=O)=C(O)C(=O)N2CCC(=O)O)c1 (centres undefined) | >57 | i |
| CC(C)(C)N1C(=O)c2ccc(C(=O)O)cc2C1=O | >57 | i |
| Cc1cc(C(=O)OCC(=O)Nc2ccc(F)cc2)c(C)o1 | >57 | i |
| O=C(CCSc1ccccc1)NCC1CCCO1 (centres undefined) | >57 | i |

The list continues.
Order of values – PK Bst, TsaE inh
Cc1ccc2cc(-c3noc(C4CCCCC4)n3)c(=O)[nH]c2c1
  x, i
O=C(c1cc(C2CC2)on1)N1CCN(c2ccc(F)cc2)CC1
  x, i
O=S(=O)(c1cccc(-n2cnnn2)c1)N1CCOCC1
  >57, i
COCCn1nnnc1C(c1ccc(OC)c(OC)c1)N1CCc2ccccc21 (centres undefined)
  >57, i
COc1cc(C)c2occ(/C(C)=N\O)c2c1
  x, i
O=C(c1ccc(Cn2cc(Br)cn2)o1)n1cccn1
  >57, i
CCOC(=O)c1sc(NCCNc2nc(C)c(C(=O)OCC)s2)nc1C
  x, i
CN(C)c1ccc(-c2ccc3ncnc(N(C)C)c3c2)cc1
  x, i
COC(=O)c1ccc(C(NC(=O)OCc2ccccc2)/C(C)=C/[C@@H](C)C(=O)N[C@@H](CO)Cc2ccccc2)cc1 (some centres undefined)
  x, i
Cc1ccc2cc(C#N)c(N3CCCC3)nc2c1C
  x, i
CCOc1ccccc1C(=O)n1nc2nc(C)cc(C)c2c1N
  >57, i
CCC(C)COC(=O)C(C#N)c1nc2ccccc2nc1N1CCCCC1 (centres undefined)
  >57, i
C=CCc1c(C)c(C#N)c2nc3ccccc3n2c1N1CCN(C)CC1
  >25.6, x
C[C@@H]1C[C@H](C)CN(S(=O)(=O)c2cc(Cl)c(Oc3ccc([N+](=O)[O-])cc3Cl)c(Cl)c2)C1
  x, i
O=C(O)Cc1ccc(O)c(O)c1
  x, i
CC(C)(C)NC(=O)CN(C(=O)CS(=O)CC(=O)Nc1ccc(F)cc1)c1ccccc1 (centres undefined)
  >57, i
O=c1c2ccccc2nc(-c2ccccc2)n1CCCn1ccnc1
  >11.4, i
COc1ccc(OC)c(NC(=O)CN(c2ccc(C(C)C)cc2)S(=O)(=O)c2c(C)noc2C)c1
  x, i
OC(CNCCc1ccccc1)c1ccccc1 (centres undefined)
  x, i
O=C1CCc2cc(S(=O)(=O)N3CCC(C(=O)NCc4ccccc4Cl)CC3)ccc2N1
  x, i
O=C(NC1CCCCCCC1)c1ccc2c(c1)N(Cc1ccc(F)cc1)C(=O)CS2=O (centres undefined)
  >57, i
CCc1ccc(S(=O)(=O)NCc2csc(-c3ccccc3)n2)s1
  >57, i
COc1ccc(CCNC(=O)CCCn2c(=O)[nH]c3cc(OC)c(OC)cc3c2=O)cc1OC
  >57, i
O=C(Cc1ccc(-n2cccc2)cc1)NCc1cccs1
  >57, i
COc1cccc(C(O)c2cnc(C(C)C)n2C)c1OC (centres undefined)
  >57, i
CC(=O)c1n[nH]nc1NC(=O)c1ccccc1
  >57, i
COc1ccc(N2CC(C(=O)NCc3cccnc3)CC2=O)cc1 (centres undefined)
  >57, i
COCCNc1ncnc2ccc(-c3ccccc3C)cc12
  x, i
Cc1cc(C)n(-c2nc(SCC(=O)N3CCCC3)c3c4c(sc3n2)CCCC4)n1
  >57, i
Clc1cccc(C=NC=Nc2cccc(Cl)c2)c1
  x, i
Cc1ccc2[nH]c3c(c2c1)CCc1cn[nH]c1-3
  8.75*, i
COc1ccc2c(c1)C(=O)CC(c1ccccc1F)O2 (centres undefined)
  x, i
CC(=O)OCc1cc(=O)n(C)c(=O)n1C
  >57, i
COc1ccc(-c2noc(C)c2-c2ccc3ccccc3n2)c(O)c1
  i, i
CC1CCN(C(=O)CSc2nc(N)cc(N)n2)CC1
  >57, i
CCCCNC(=O)Cn1c(=O)n(C)c2ccccc21
  x, i
CNC(=O)CN(c1cc(C)ccc1OC)S(=O)(=O)c1ccc(C)cc1
  x, i
CCSc1nnc(Cn2c(=O)sc3ccccc32)n1C
  x, i
CCOC(=O)N1CCC(NC(=O)C(Cc2ccccc2)NC(=O)C2CCCCC2)CC1 (centres undefined)
  >57, i
CCCCn1cnc2c(cnn2-c2ccc(F)cc2)c1=O
  x, i
CCOc1ccc(-n2c(SCc3ccc(C#N)cc3)nnc2-c2cccnc2)cc1
  >25.6, x
Oc1ccc([C@@H]2CNCc3sccc32)cc1O
  x, i
CCc1n[nH]c2c1/C(=N/O)CCC2
  >57, i
CCCn1nnc(NC(=O)c2ccc(-c3ccccc3)cc2)n1
  >57, i
CCOC(=O)c1ccc(CSc2nnc(N)s2)cc1
  >57, i
CCC1CCCCN1CCCNC(=O)Cn1nc(-c2ccccc2)ccc1=O (centres undefined)
  >57, i
Cc1ccc2c(CC(=O)OCc3csc(C)n3)coc2c1
  >57, i
Cc1cc(NCCCn2ccnc2)n2nc(-c3ccc(F)cc3)cc2n1
  u, i
CCNc1nc(-c2ccc(Cl)cc2)cs1
  10.1*, i
Cc1sc2nc(CN3CCOCC3)nc(Oc3ccc(NC(=O)c4ccco4)cc3)c2c1C
  i, i
O=C1CC(c2ccco2)Sc2nc3ccccc3n21 (centres undefined)
  x, i
O=C(CSc1nnc(COc2ccc(Cl)cc2)o1)OC1CCCCC1
  >57, i
CN1C[C@@H](C(=O)N[C@]2(C)O[C@]3(O)[C@H]4CCCN4C(=O)[C@H](Cc4ccccc4)N3C2=O)C[C@H]2c3cccc4[nH]cc(c34)C[C@@H]21
  x, i
COc1ccc(C(c2nnnn2CCc2ccccc2)N2CCN(C)CC2)cc1OC (centres undefined)
  >57, i
COC(=O)c1ccc(OC)c(CSc2nnc(COc3ccc(Cl)cc3)o2)c1
  >57, i
O=c1c(=O)n(O)c2ccccc2n1O
  >57, i
O=c1[nH]nc(Cc2ccccn2)c2ccccc12
  >57, i
N[C@@H](COP(=O)(O)O)C(=O)O
  x, i
C#CCn1c(=O)c2c(ncn2C)n(C)c1=O
  x, i
Cc1cc2oc3c(c(=O)c2cc1C)C(c1cccc(Br)c1)N(Cc1ccco1)C3=O (centres undefined)
  >57, i

Next part:
Order of values – PK Bst, TsaE inh
Cc1cccc(-n2c(CNC(=O)COc3ccccc3)nnc2SCC(=O)Nc2nccs2)c1
  >57, i
C=CCn1c(COc2ccccc2C)nnc1SCC(=O)O
  >57, i
Cc1cc(N2CCCC2)n2nc(C)c(-c3ccccc3)c2n1
  >57, i
COC(=O)c1nnn(-c2nonc2N)c1CSc1ccc(Cl)cc1
  >57, i
O=C(NCc1ccco1)c1nnc(Cc2ccc(F)cc2)o1
  x, i
c1ccc(C(c2ccccc2)N2CCN(Cc3nnnn3C3CCCC3)CC2)cc1
  >57, i
c1csc(-c2nn[nH]n2)c1
  >57, i
CCc1cc2cc3c(cc2nc1SCC(=O)N1CCN(C(=O)c2ccco2)CC1)OCO3
  >57, i
O=C(O)C1C2C=CC(C2)C1C(=O)N1CCOCC1 (centres undefined)
  >57, i
Oc1ccc(Cn2cc[nH]c2=S)cc1
  x, i
CCC1CCCCN1Cc1nc2c(c(=O)n(C)c(=O)n2C)n1CCCc1ccccc1 (centres undefined)
  x, i
COCCN1Cc2cccc(C(=O)Nc3ccccc3OC)c2C1=O
  >57, i
Cc1cc2cc3c(C)cc(=O)oc3c(C)c2o1
  x, i
CCCCCCC(=O)N(O)C1CC(=O)N(Cc2ccccc2)C1=O (centres undefined)
  >57, i
Cc1ccc(CSC2=Nc3ccccc3C3=NC(CCC(=O)NCc4ccco4)C(=O)N23)cc1 (centres undefined)
  x, i
COc1ccc(-c2nc(SCC(=O)NCc3ccco3)c(-c3ccccc3)[nH]2)cc1OC
  x, i
CCOC(=O)CSc1nc(N)nc(C)c1Br
  x, i
CCc1nc(SCC(=O)NCCc2ccc(OC)c(OC)c2)c2c(=O)n(C)c(=O)n(C)c2n1
  x, i
O=C(O)C1C2C=CC(C2)C1C(=O)N1CCN(C/C=C/c2ccccc2)CC1 (centres undefined)
  x, i
N#CCSc1nnc(Cc2cccs2)n1C1CCCCC1
  >57, i
OC[C@H]1NC[C@@H](O)[C@@H](O)[C@H]1O
  x, i

Source: PubChem BioAssay
